T cruzi inh: blocks replication of Trypanosoma cruzi; T. cruzi beta-gal in NIH3T3, luminescence, 90 h; hit rate 1.4% among 300,000; inhibition, % (concentration not given with the values); AID 1885;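 active = mean inhibition across valid replicates above about 55%, limit read from the data; inconclusive = mean below that limit but half or more replicates reach it; inactive = mean below it, under half of replicates reach it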;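 note: signal also drops with host cell toxicity which is not excluded here; 0% = plate median of DMSO wells and 100% = zero luminescence signal; higher percent means less beta-gal luminescence so fewer parasites; stock transfer was 50 nL into about 50 µL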
Beta apoptosis: beta cell apoptosis inhibition | hit rate 0.8% among 300,000 | protection from apoptosis, % (no concentration beside the values) | INS-1E cytokine-induced death, ATP luminescence, 48 h; percent of positive-control rescue, neutral wells zero | AID 435005;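 active = all replicates at 75% or more, or half of them and the mean; inconclusive = half reach 75% but not the mean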;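 note: 0% = cytokine-treated negative control wells and 100% = positive control rescue; higher means more ATP so stronger rescue from cytokine killing; wells of about 40 µL received 100 nL stock; the first replicate is given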
B2AR ag: activates human beta-2 adrenergic receptor causing internalization. P07550. AID 504454. hit rate 0.43% among 340,000. Am2.2-beta2AR cells, FAP receptor internalization, flow cytometry; reference of the scale not given here. response, % (test concentration not listed);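 active = response above a set limit, near 3 SD of response in nonfluorescent compounds, cut at about 42% in these data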;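 note: stock transfer was 100 nL into about 11 µL; a reference agonist was the positive control; negative values mostly stem from fluorescent compounds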
Target sequence (P07550 whole entry, looked up): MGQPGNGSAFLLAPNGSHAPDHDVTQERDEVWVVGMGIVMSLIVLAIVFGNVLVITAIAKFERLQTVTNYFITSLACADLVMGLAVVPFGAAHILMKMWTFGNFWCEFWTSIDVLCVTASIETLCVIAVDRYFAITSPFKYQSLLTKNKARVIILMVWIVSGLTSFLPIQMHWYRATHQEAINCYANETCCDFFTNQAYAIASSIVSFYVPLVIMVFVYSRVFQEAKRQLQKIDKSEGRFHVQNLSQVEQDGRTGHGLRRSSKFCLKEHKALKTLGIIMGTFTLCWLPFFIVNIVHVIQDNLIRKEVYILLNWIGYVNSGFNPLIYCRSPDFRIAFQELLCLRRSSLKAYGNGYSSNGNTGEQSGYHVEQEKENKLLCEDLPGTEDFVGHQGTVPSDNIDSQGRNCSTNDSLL
UCH37 inh: inhibitors of human deubiquitinating enzyme UCH37; purified proteasome/UCH37, Ub-AMC cleavage fluorescence; Q9Y5K5; hit rate 0.33% among 330,000; inhibition, % (test concentration not listed);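 active = mean of two replicates above 20%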;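 note: 0% = compound-free wells with enzyme and 100% = wells lacking proteasome; stock transfer was 100 nL into about 20 µL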
Target sequence (Q9Y5K5 whole entry, looked up): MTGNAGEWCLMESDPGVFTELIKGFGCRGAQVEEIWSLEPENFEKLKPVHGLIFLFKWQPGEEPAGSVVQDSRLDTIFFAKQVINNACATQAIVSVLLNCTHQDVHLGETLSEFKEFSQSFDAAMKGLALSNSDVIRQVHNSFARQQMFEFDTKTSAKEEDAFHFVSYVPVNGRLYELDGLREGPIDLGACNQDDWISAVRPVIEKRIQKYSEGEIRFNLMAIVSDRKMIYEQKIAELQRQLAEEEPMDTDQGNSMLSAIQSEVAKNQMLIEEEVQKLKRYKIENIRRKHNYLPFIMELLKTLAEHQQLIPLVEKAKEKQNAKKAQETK
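system = Proteasome-associated human UCH37 deubiquitinase | amount = 0.15 nM proteasome as dispensed | medium = pH 7.4 Tris-HCl (50 mM) with ovalbumin, ATP-MgCl2, DTT | incubation = 30 min preincubation with enzyme, 25 min cleavage at room temperature | detection = AMC fluorescence 355/460 nm | read-out basis = percent inhibition | controls = no-proteasome and no-compound wells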
RanGTP-Imp inh: disruptors of Ran-importin-beta complex formation – biochemical, FRET, CFP-Ran, YFP-importin-beta, homogeneous, primary screen | cell-free CFP-Ran/YFP-importin-beta FRET ratio | hit rate 1.1% among 300,000 | inhibition, % (concentration not given with the values);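 active = most replicates above 15%; inconclusive = exactly half above 15%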;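 note: 0% = DMSO wells and 100% = Ran loaded with GDP instead of GTP; wells of about 40 µL received 100 nL stock; the first replicate is given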
LANA-H2A inh: blocks KSHV LANA binding to histone H2A/H2B; Q9QR71; inhibition, % (concentration not given with the values); cell-free LANA-H2A/H2B peptide, fluorescence polarization; hit rate 0.6% among 320,000; AID 2629; in the data active = inhibition mostly above about 10%, no sharp cut-off; inactive = mostly below about 6.7%;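 note: stock transfer was 7.5 nL into about 10 µL; 0% = median of vehicle wells and 100% = median of positive control wells; one replicate is shown; the record names a cut of 25% in any replicate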
Bfl-1 A1 inh: inhibitors of the anti-apoptotic protein A1, read as caspase activation; MEF A1-2A-BIM cells, Caspase-Glo 3/7 luminescence, 3 h; percent of clofoctol response, vehicle zero; caspase activation, % (no concentration beside the values); hit rate 0.066% among 330,000;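 active = over half of replicate activation scores above 10%, or exactly half above 10 with the replicate mean above 10; inconclusive = replicate mean below 10 yet half the replicates above 10; inactive = over half of replicates below 10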;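 note: wells of about 30 µL received 50 nL stock; many hits fall short of the cut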
Calb FLC: affects C. albicans growth with fluconazole; hit rate 0.57% among 300,000; growth inhibition, % (concentration not given with the values); C. albicans CaCi-2 (fluconazole-resistant clinical isolate) + fluconazole, Alamar Blue growth, 48 h;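 active = most replicates above 75%; inconclusive = exactly half above 75%; inactive = most below 75%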;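 note: all wells also contain fluconazole at 8 µg/ml as a sub-toxic cotreatment; 0% = median of DMSO wells and 100% = median of geldanamycin control wells; wells of about 8 µL received 7.5 nL stock; the first replicate is given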
* = called active by the depositor; ? = inconclusive; nt = no result given.

Screens in order – T cruzi inh	Beta apoptosis	B2AR ag	UCH37 inh	RanGTP-Imp inh	LANA-H2A inh	Bfl-1 A1 inh	Calb FLC
CC(Cc1ccccc1)NC(=O)/C=C/c1ccc([N+](=O)[O-])cc1 (stereo not given)
    0	1	-4	1.6	1.9	11	-0.6	-29
CCOC(=O)C(NC(=O)c1cccnc1)(Nc1cccc(C)n1)C(F)(F)F (stereo not given)
    -6	-15	-3	0.5	0.1	-1.3	0.4	-6
COc1ccccc1N/N=C/c1c(CO)cnc(C)c1O
    3	0	4	nt	1.9	3.7	0.3	-27
CC(=O)C1=C(O)C(=O)N(Cc2ccccc2)C1c1ccc(Br)cc1 (stereo not given)
    31	-9	6	6.6	-0.5	-1.8	1.6	-5
COc1cc(CNCCO)cc(Br)c1OCc1ccccc1
    8	4	6	5.8	-2.0	0.3	-0.5	-2
Cc1c(N2CCCC2)cc2c(c1N)C(C)(C)CC2(C)C
    22	-5	12	-0.8	-2.8	-0.4	-1.3	-8
CC(C)(C)NC(=O)C(=O)NNC(=O)C12CC3CC(CC(C3)C1)C2
    16	-2	9	2.0	-4.9	2.4	1.0	-10
CCN(CC)Cc1cc(C(=O)O)c(-c2ccccc2)o1
    -5	-7	5	0.8	4.4	-1.0	0.1	-2
Cc1cc(NC(=O)CSc2nc3sc4c(c3c(=O)n2C)CCCC4)no1
    -13	11	2	-0.1	5.4	-2.5	0.0	-20
O=C(NCCN1C(=O)CSC1=O)c1ccccc1
    nt	-3	-1	2.5	nt	-7.7	0.9	nt
CCOC(=O)C1=C(C)NC(=S)NC1c1ccc(OCC(=O)N2CCCCC2)cc1 (stereo not given)
    3	nt	7	6.7	2.0	2.0	0.3	2
CCCCCC/C=C/c1ccc(OC)c([C@H]2[C@H]3C=CC[C@@H](C)[C@@H]3C(=O)N2Cc2ccccc2)c1
    -15	20	1	0.0	-0.6	-2.1	0.6	-3
O=C(NC1=NCCS1)c1ccccc1OCc1ccc(F)cc1
    -4	0	-10	1.5	-0.8	-0.7	0.2	-2
Cc1nnc2c(NCCc3ccccc3)nc3ccccc3n12
    18	-3	-2	-15	?	-6.6	0.2	-13
CC(=Nc1ccccc1)Nc1ccccc1
    nt	-1	13	4.1	nt	5.4	-1.3	nt
O=C(O)/C=C\C(=O)NNC(=O)c1cc(-c2ccccc2)n[nH]1
    -8	1	-11	1.9	?	1.4	-0.6	-12
Cc1cc2ccccc2c(=O)n1CC(=O)Nc1ccc2c(c1)OCO2
    -25	-7	1	-5.3	3.2	-3.1	1.1	-7
COc1cccc(OCc2nc(-c3ccc(Br)o3)no2)c1
    16	-6	-2	1.1	24	1.4	-1.3	5
Cn1c(Cl)c(C(=O)Nc2ccccc2)c2ccccc21
    nt	-2	-9	2.3	nt	2.1	-0.3	nt
COc1ccc(NC(=O)Cc2nnc(SCC(=O)NC3CCCC3)n2C)cc1
    -7	-12	11	2.4	-0.1	-0.2	0.1	2
CCOC(=O)C1=C(COC(=O)c2ccc3ccccc3c2O)NC(=O)NC1C (stereo not given)
    nt	-4	5	-25	nt	3.8	0.1	nt
CN(CC(=O)Nc1cccc(F)c1)C(=O)c1ccccc1OCC(=O)Nc1cccc(C(F)(F)F)c1
    61*	8	-5	4.2	0.2	-1.7	-0.5	-4
COC(=O)[C@H](Cc1ccccc1)NC(=O)N1CC(C)OC(C)C1 (stereo not given in full)
    -8	6	-1	4.6	0.9	1.2	-0.4	-4
CC(C)OCCCNC(=O)C(=O)NCCCOC(C)C
    -4	-5	-50	-0.3	0.7	-2.0	0.5	-2
O=C(O)COCC(=O)Nc1ccc2c(c1)ncn2CCc1ccccc1
    0	-5	-2	1.1	-2.1	-1.8	-0.2	32
CC(OCCN1CCCC1)(c1ccc(F)cc1)c1ccc(F)cc1
    32	5	-6	0.4	5.7	-3.6	0.0	15
COc1ccc(NC(=O)CCCC2CCCCC2)c(OC)c1
    5	-1	2	0.0	-8.5	0.1	1.3	-16
Cc1ccccc1OCC(=O)N1CCCc2ccccc21
    7	-4	4	5.0	-1.4	-0.5	-2.0	3
COc1ccccc1C(=O)N1CCN(c2cccc(C(F)(F)F)c2)CC1
    -56	7	-6	5.5	1.0	2.7	1.2	15
Cc1cc(C)n(/N=C/c2ccc(O)cc2)c(=O)c1C#N
    -8	5	-2	nt	7.5	0.8	0.8	-2
COc1ccc(NC(=O)c2ccccc2NC(=O)c2ccccc2C(=O)O)c(OC)c1
    -10	-11	-3	-2.1	0.9	1.5	0.6	7
COc1ccc(OCCN2C(=O)c3ccccc3C2=O)c([N+](=O)[O-])c1
    -17	-7	-10	0.1	6.9	-18	-1.3	6
O=C(NNC(=O)C1CC1c1ccccc1)c1ccccc1[N+](=O)[O-] (stereo not given)
    0	-2	-7	3.7	-0.4	2.7	1.3	-4
Cc1ccc(NC(=S)NNc2ccc([N+](=O)[O-])cc2S(=O)(=O)Nc2ccccc2C(=O)O)cc1C
    1	-2	1	9.6	8.2	1.0	-0.3	?
COc1ccccc1Nc1nc(N)nc(CSC(=S)N2CCN(c3ccccc3)CC2)n1
    63*	4	-5	1.8	1.3	0.2	-0.8	-5
O=C(NCC1(c2ccccc2)CCCC1)C(=O)NCC1(c2ccccc2)CCCC1
    -13	nt	2	3.1	5.4	nt	nt	-11
Cc1ccsc1/C=C(\C#N)C(=O)NC1CCS(=O)(=O)C1 (stereo not given)
    -4	2	-6	16	8.7	-1.3	0.5	22
CC1CC1c1ccc(/C=C(\C#N)C(=O)Nc2ccc(Cl)cc2Cl)o1 (stereo not given)
    12	-5	14	-9.6	40*	-6.4	-0.2	1
CC12CN(NC(=O)c3ccccc3F)C3(C#N)CC1CCC23C (stereo not given)
    -8	-1	-2	0.9	2.7	0.9	1.7	6
CCCCN(C(=S)NC(=O)c1ccccc1)c1c(N)n(Cc2ccccc2)c(=O)[nH]c1=O
    0	-2	7	1.2	6.2	-2.5	0.6	4
Cc1cc(=O)n2nc(N3CCCC3C(=O)NCCCN3CC(C)CC(C)C3)sc2n1 (stereo not given)
    -9	-10	0	1.0	4.7	6.3	0.1	4
CCN(CC)c1ccc(NC(=O)c2cc(OC)cc(OC)c2)c(C)c1
    -21	nt	55*	-0.2	3.3	nt	nt	3
COC(=O)c1ccc(S(=O)(=O)c2ccc(C(=O)OC)s2)s1
    1	2	nt	3.6	6.7	-0.5	1.1	-2
COc1ccc(NC(=O)c2nn(C)cc2[N+](=O)[O-])cc1
    6	-27	2	2.3	-3.3	3.7	-0.4	-2
O=C(NCCCn1ccnc1)C(=O)NCC1OCCCN1S(=O)(=O)c1ccc(F)cc1 (stereo not given)
    -2	0	-4	1.5	-2.6	-2.7	0.7	-6
Cc1nc(C)c(-c2ccc(SCC(=O)Nc3ccc(C)c(Cl)c3)nn2)s1
    14	-5	-4	4.7	-2.1	2.1	-0.2	-5
Oc1ccc(Br)cc1C=Nc1ccc2[nH]ncc2c1
    8	-3	2	4.1	1.7	0.8	-0.4	?
NC(=S)c1ccc(C(N)=S)o1
    -10	-2	-7	12	6.1	6.1	-0.1	8
COc1ccccc1N1C(=S)N=C(Nc2c(C)cccc2C)C12CCCC2
    -13	6	-3	1.9	1.3	-2.9	1.1	-5
COc1ccc(C(=O)Nc2ccc(C(=O)OCC(=O)c3cccc4ccccc34)cc2)cc1
    -2	1	-4	nt	2.9	1.3	0.8	-2
O=C(O)C1Sc2[nH]c(=O)sc2C2c3cc(Br)ccc3OC(=O)C12 (stereo not given)
    -9	-3	7	1.8	?	-0.1	0.6	8
CC1(C)S[C@@H]2[C@H](NC(=O)COc3ccccc3)C(=O)N2C1C(=O)OCc1ccccc1 (stereo not given in full)
    -2	0	-1	3.4	1.8	3.9	-1.3	4
COc1ccccc1/C=C/CN1CCCC(CCC(=O)NCc2ccccc2F)C1 (stereo not given)
    76*	-2	-2	-2.9	-1.5	3.6	-0.9	-2
C=CC[C@@H](CC(=O)N(CCO)Cc1ccccc1)C(=O)N[C@@H](COC(=O)[C@@H](CC=C)Cc1ccc(F)cc1)Cc1ccccc1
    nt	13	2	1.9	nt	4.4	0.8	nt
COc1ccc(-c2nnc(CSc3nc4ccccc4c(=O)n3C)o2)cc1OC
    19	4	6	2.6	?	-4.9	0.0	-8
COc1ccc(S(=O)(=O)N2CCOCC2)cc1NC(=O)COC(=O)CC1CC2CCC1C2 (stereo not given)
    nt	-5	-12	0.6	nt	-8.3	-0.4	nt
CCc1ccc(NC(=O)Cn2ncc3c4ccccc4n(C)c3c2=O)cc1
    3	3	-9	-7.4	1.3	1.2	0.1	-13
CN1C(=O)NC(NS(=O)(=O)c2ccc(N)cc2)(C(F)(F)F)C1=O (stereo not given)
    -3	3	-2	-1.1	-1.7	1.9	0.6	1
O=C(NCc1ccccc1Cl)C1=CC=CN2CCS(=O)(=O)N=C12
    nt	2	-9	-147	nt	-1.7	0.0	nt
CCOC(=O)C1=C(O)C(Nc2nccs2)(C(F)(F)F)N=C1C (stereo not given)
    -2	-7	4	2.0	?	-2.8	0.2	-1

(list continues)
Screens in order – T cruzi inh	Beta apoptosis	B2AR ag	UCH37 inh	RanGTP-Imp inh	LANA-H2A inh	Bfl-1 A1 inh	Calb FLC
COc1ccc(S(=O)(=O)N2CCN(C(=O)CCC3CCCC3)CC2)cc1
    2	0	4	-0.8	-0.1	-3.0	0.5	-23
COC(=O)c1ccc(/C=C/C(=O)O)cc1
    0	1	1	1.1	-0.2	-3.8	-0.3	-2
CC(C)(C)CC(C)(C)NC(=S)NC1CCN(Cc2ccccc2)CC1
    -10	10	-8	-23	12	-0.9	0.3	2
CCCCN(C)C(=O)C1CCN(Cc2cccnc2)CC1
    5	-4	13	0.7	?	-1.4	0.0	-2
C#CCOCCOCCOCCNc1nc(N2CCN(C(=O)[C@H](CCC(=O)O)n3cc([C@@H](N)[C@H](C)CC)nn3)CC2)nc(N2CCN(C(=O)[C@H](CCCCN)n3cc([C@@H](N)CC(N)=O)nn3)CC2)n1
    nt	-7	-1	0.3	nt	1.4	1.2	nt
Cc1cc(NC(=O)CSc2nc3ccccc3c(=O)n2Cc2ccc(F)cc2)no1
    2	16	-8	0.8	4.9	4.2	-0.2	-14
CC(=O)c1ccc(OCCNS(=O)(=O)c2ccc(-n3cnnn3)cc2)cc1
    -13	-3	1	1.8	-0.1	5.2	0.2	2
CC1CCN(C(=O)CN(c2ccc(Cl)c(C(F)(F)F)c2)S(C)(=O)=O)CC1
    2	2	10	1.1	2.3	4.4	0.2	-2
N#CC(c1cccc(C(F)(F)F)c1)(c1ncc(C(F)(F)F)cc1Cl)N1CCOCC1 (stereo not given)
    6	2	0	4.8	-1.1	-2.3	-0.2	-11
O=C(O)C1Nc2c(Cl)cc(Cl)cc2C2C=CCC12 (stereo not given)
    1	4	7	7.9	-0.3	7.5	0.6	3
CCN(CC)CCCn1c2c(c(SCC(=O)Nc3ccc4c(c3)OCO4)nc1=O)CCC2
    -12	-1	0	4.7	2.5	4.5	-1.2	-4
